BJeLR viability = BJeLR cell viability loss | 300,000 compounds, 0.17% hits | inhibition, % (no concentration beside the values) | AID 1554 | BJeLR (HRASV12) viability, CellTiter-Glo ATP luminescence, 48 h; reference of the scale not given here;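 active means replicate mean above 50%; inconclusive means above 50% but judged a plate artefact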;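 further: 50 nL library stock added to about 25 µL; numbers are from one replicate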
RN4220 kill = kills Staphylococcus aureus RN4220 | 330,000 compounds, 0.33% hits | S. aureus RN4220 growth, OD600, 16 h | inhibition, % (no concentration beside the values) | AID 1259311;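 active means z-score of -3 or lower and OD600 up to 0.18 on both plates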;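 further: plate controls were untreated cells for no effect and reference antibiotic for full effect; stock transfer was 100 nL into about 80 µL; one replicate is shown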
Mtb hypoxia inh = reduces hypoxia-regulated biosensor signal in M. tuberculosis; M. tuberculosis hypoxia-regulated fluorescent reporter, fluorescence; fluorescence inhibition, % (concentration not given with the values); 300,000 compounds, 0.1% hits; AID 1159583;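 active means 35 to 45% if threefold the growth effect, above 45% if 1.5-fold the growth effect; inactive means the rest, general growth blockers included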;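 further: wells of about 50 µL received 100 nL stock; 0% = vehicle wells and 100% = reference inhibitor wells; whole bacteria with a GFP reporter of the hypoxia response; strong numbers were not always called active; many hits fall short of the cut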
ugtP null kill = kills S. aureus RN4220 lacking UgtP; S. aureus RN4220 ugtP deletion, OD600 growth, 16 h; some inactives read as strong as hits; growth inhibition, % (no concentration beside the values); 330,000 compounds, 0.54% hits; AID 1259309;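 active means z-score under -3 and OD600 up to 0.15 on both plates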;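 further: plate controls were untreated wells for no effect and antibiotic for full effect; wells of about 80 µL received 100 nL stock; the first replicate is given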
Autofluor counter = flagged as autofluorescent in microsphere protease counterscreen | compound autofluorescence counterscreen, microsphere flow cytometry; stronger effect = higher value | fluorescence intensity (test concentration not listed) | 360,000 compounds, 3.1% hits | AID 624483;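 active means at least 3 SD above the mean of all compounds, about 16000 in these data; inconclusive means too few beads counted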;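 further: 100 nL of 1 mM stock went into each well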
PrP 5UTR inh = suppresses PrP 5' UTR mRNA reporter expression. cell-based PrP 5' UTR mRNA reporter, plate reader. inhibition, % (test concentration not listed). 340,000 compounds, 0.35% hits. AID 488862;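 active means every replicate at 50% or more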;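 further: 0 = median of the neutral control wells; tested in H4 reporter cells; numbers are from one replicate; inactives centre near -14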
Mtb hypoxia inh growth = second read-out of Mtb hypoxia inh, no call of its own (marks repeat the call); growth inhibition, %; measured here: M. tuberculosis growth (absorbance);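 0% = vehicle and 100% = reference antibiotic; read after six days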
* marks the source's active call; other numbers are inactive results; ? = inconclusive; . = not tested or not shown.

SMILES | BJeLR viability | RN4220 kill | Mtb hypoxia inh | Mtb hypoxia inh growth | ugtP null kill | Autofluor counter | PrP 5UTR inh
COc1ccc(OC)c(C(=O)NC2CCSc3ccccc32)c1 (centres undefined) | -14 | 18 | 18 | 1 | -10 | 6207 | -2
COc1ccc(CCNC(=O)c2cccc(S(=O)(=O)NC(C)c3ccccc3)c2)cc1 (centres undefined) | . | 0.8 | 1 | 5 | 7 | ? | -8
Cc1ccc(N=C(N(C)C)P(=O)(N(C)C)N(C)C)c(C)c1 | -4 | -0.3 | 3 | 3 | -2 | 4157 | -15
COc1ccc(NC(=O)N2CCCCC2c2cccnc2)cc1 (centres undefined) | 5 | 2.9 | 4 | -1 | 3 | 10737 | -11
CC1=CC(C)(C)NC(=S)N1c1ccc(N(C)C)cc1 | . | 3.9 | 17 | 5 | 0 | 3344 | -3
Cc1ccc(Sc2sc(=O)n(C)c2S(=O)(=O)c2ccc(C)cc2)cc1 | 2 | 29 | 2 | 0 | 18 | 4147 | -9
CCCCc1cc(C)c(S(=O)(=O)c2ccccc2C)c(=O)[nH]1 | 4 | 2.1 | 6 | 4 | 6 | 3470 | -12
Cc1ccc(Cc2cnc(N)s2)o1 | -1 | 1.0 | 5 | 3 | -1 | 12289 | -15
Fc1ccccc1CNc1nc(-c2cccnc2)nc2ccccc12 | -5 | -4.2 | -8 | 3 | -21 | 7245 | -12
COc1cccc(CN2CCN(Cc3nc(-c4cccc(F)c4F)oc3C)CC2=O)c1 | -11 | 5.4 | 14 | 4 | 9 | 3736 | -21
c1ccc(Cc2nnc(N3CCCCC3)c3ccccc23)cc1 | 2 | -2.1 | -3 | -10 | 10 | ? | -15
Cn1cc(/C=C(\C#N)C(=O)Nc2ncc(Cc3ccc(Cl)cc3)s2)c2ccccc21 | 1 | 0.5 | -2 | -4 | -23 | 2653 | -16
O=C(O)c1ccc(CSc2nc3ccc(NC(=O)c4ccccc4C(=O)O)cc3s2)cc1 | 4 | 6.2 | -13 | -17 | -2 | 4732 | -17
Cc1ccc(C)c2[nH]c(=O)c(CCNC(=O)CCc3ccccc3)cc12 | -5 | 1.4 | 3 | 2 | 7 | 5531 | -20
O=C(Nn1cnnc1)c1ccccc1Cl | -1 | 5.4 | 5 | 6 | 11 | 4135 | -18
Cc1occc(=O)c1O | 3 | . | . | . | . | 6011 | -6
CC(=NNS(=O)(=O)c1ccccc1)c1cc(Cl)cc(Cl)c1O | . | 6.3 | 17 | 4 | 28 | . | .
CC(=O)Nc1ccc(C(=O)C(Cc2ccccc2)N(C)C)cc1 (centres undefined) | -4 | 0.0 | 5 | 4 | 15 | 3265 | -18
Cc1cc(CNC(=O)COc2ccccc2)c2ccccc2n1 | -5 | 8.2 | 12 | 13 | 27 | 4147 | -24
Cc1csc(=O)n1CCC(=O)OCC(=O)NCc1ccc(Cl)cc1Cl | -2 | 0.6 | 0 | -2 | 6 | 4287 | -21
CCNc1nc(Oc2ccc(=O)n(-c3ccccc3)n2)nc(N(C)C)n1 | -5 | 5.1 | 6 | 0 | -4 | 2773 | -12
COc1cccc(-n2nc(C(=O)N3CC(C)CC(C)C3)c3ccccc3c2=O)c1 (centres undefined) | . | -4.0 | -6 | 0 | -6 | 20358* | -24
COc1ccc2nc(NNC(=O)C3COc4ccccc4O3)sc2c1 (centres undefined) | -8 | . | . | . | . | 5933 | -2
CC1CCCN(S(=O)(=O)c2ccc(C(=O)NC(C)c3ccccc3)cc2)C1 (centres undefined) | . | 2.5 | 9 | -5 | 4 | 6579 | -9
CCn1c(O)c(/C=N/N=C/c2ccccc2)c2ccc(C3=NNC(=O)CC3)cc21 | -2 | . | . | . | . | 22930* | 2
COc1ccc2nc(NC(=O)CN(c3ccc(C)cc3)S(=O)(=O)c3c(C)nn(C)c3C)sc2c1 | 0 | 5.2 | -2 | -3 | -2 | 20805* | -23
O=C(NCCN1CCN(c2ccccc2F)CC1)c1ccc2nc3ccccc3c(=O)n2c1 | 9 | -0.9 | -16 | 6 | 4 | 3827 | -26
CC(=NNc1cccc2cccnc12)c1ccccc1O | . | 1.8 | -8 | -4 | -7 | . | .
CC(C)(C)NC(=O)CSCc1c(Cl)cccc1Cl | 10 | -8.9 | 3 | 7 | -6 | 2362 | -23
O=C(NCC1CCCO1)C(c1cccs1)N(Cc1ccccc1)C(=O)c1ccc(-c2ccccc2)[nH]1 (centres undefined) | -12 | -2.2 | -1 | 6 | -18 | 2488 | -1

A stretch taken from the entries so far:
SMILES | BJeLR viability | RN4220 kill | Mtb hypoxia inh | Mtb hypoxia inh growth | ugtP null kill | Autofluor counter | PrP 5UTR inh
CC(C)(C)NC(=O)CSCc1c(Cl)cccc1Cl | 10 | -8.9 | 3 | 7 | -6 | 2362 | -23
O=C(NCC1CCCO1)C(c1cccs1)N(Cc1ccccc1)C(=O)c1ccc(-c2ccccc2)[nH]1 (centres undefined) | -12 | -2.2 | -1 | 6 | -18 | 2488 | -1

The results go on:
SMILES | BJeLR viability | RN4220 kill | Mtb hypoxia inh | Mtb hypoxia inh growth | ugtP null kill | Autofluor counter | PrP 5UTR inh
COC(=O)CSc1nnc(CNC(=O)c2ccccc2OC)n1C | -11 | 3.3 | 1 | 3 | 7 | 11773 | -12
NC(=O)c1ccsc1NC(=O)CCS(=O)(=O)c1ccc(F)cc1 | -3 | 3.8 | 13 | 6 | 3 | 5303 | -11
Cc1ccc(Nc2nc(C)c(CCC(C)C)c(=O)[nH]2)cc1 | 11 | 2.5 | 8 | 0 | -5 | 3586 | -20
Cc1cc(C)c2cc(C#N)c(NCCNC(=S)NCCCN3CCOCC3)nc2c1 | -9 | 3.5 | 13 | 9 | 3 | 4570 | 4
COc1cccc(C2/C(=C(\O)c3ccc4c(c3)OCCO4)C(=O)C(=O)N2c2nnc(C)s2)c1 (centres undefined) | 1 | 4.3 | -3 | 2 | 0 | . | -31
C=CCN(CC=C)S(=O)(=O)c1ccc2nc(NC(=O)C(C)C)sc2c1 | . | 6.4 | . | . | -2 | 4189 | -31
CCOc1ccc(CCNC(=O)C2CCN(S(=O)(=O)c3ccc(C)cc3)CC2)cc1OCC | 11 | 2.9 | 12 | 6 | 6 | 5730 | -12
CCOC(=O)C1CCN(S(=O)(=O)c2cccc3nonc23)CC1 | -9 | 1.5 | 13 | 0 | 2 | 4562 | -2
Cn1cc([N+](=O)[O-])cc1-c1nc2ccccc2n1C | 2 | 4.7 | 9 | 5 | 9 | 3781 | -14
O=C(CCCN1C(=O)c2ccccc2C1=O)NCCCN1CCOCC1 | -1 | 0.9 | -6 | 0 | 5 | 9673 | -18
COc1ccc(C(C)=O)cc1CSCCC(=O)O | -1 | 0.4 | . | . | 7 | 2137 | -4
COCCCN1C(=O)C2C(C(=O)Nc3cccc(Cl)c3)C3C=CC2(O3)C1C(=O)NC1CCCCC1 (centres undefined) | -13 | 1.1 | 11 | 0 | -1 | 3670 | -2
Cc1nc2ccccn2c1C(=O)NN=C1CCN(C)CC1 | 7 | 0.6 | -5 | 5 | 2 | 4333 | -8
CCOC(=O)C1=C(CSCC(=O)OC)NC(=O)NC1c1cc(C)ccc1C (centres undefined) | 6 | 1.9 | 0 | 6 | 3 | 22020* | 8
O=C(CCOc1ccccc1)OCC(=O)c1cc2ccccc2o1 | 2 | 7.8 | . | . | 0 | 3671 | -19
O=C(CSc1nnc(NC(=O)c2c(F)cccc2Cl)s1)Nc1ccccc1F | 6 | -7.7 | 6 | 8 | 3 | 5816 | -8
CCN(CC)CCCN=C(C)c1c(O)n(-c2ccccc2)c(=O)[nH]c1=O | 11 | -0.4 | -1 | 5 | -3 | 22362* | 12
COCCCNCCCCOc1ccc(Br)cc1C | 6 | 3.3 | 24 | 14 | 11 | 2506 | -8
CC(OC(=O)Cn1c(C(F)(F)F)nc2ccccc21)C(=O)N1CCCc2ccccc21 (centres undefined) | . | -4.3 | 6 | 0 | -1 | 3379 | -8
CCCCNC1C(CC)C(CCC)C(C#N)(C#N)C1(C#N)C#N (centres undefined) | -6 | -6.2 | -4 | 18 | -12 | ? | -3
CCOC(=O)c1c(NC(=S)Nc2ccc(Cl)cc2)sc2c1CCN(C)C2 | . | -2.1 | 3 | -4 | -2 | 15220 | 6
COCCCn1c(SCc2ccc(OC)cc2)nc2cc(OC)c(OC)cc2c1=N | -15 | 8.6 | 3 | 12 | -4 | 23040* | -14
COc1ccc2c(c1)O/C(=C\c1sccc1C)C2=O | -1 | 6.2 | 11 | 9 | -7 | 2448 | -35
C/C(Cl)=C\CSc1nnc2n(N)c(=O)c3ccccc3n12 | 3 | 4.2 | 4 | 8 | 2 | ? | -5
CCOC(=O)Cc1csc(NC(=O)CSc2nnc(C3CC3)n2C)n1 | 1 | 6.4 | . | . | 4 | 4226 | 1
Cc1ccnc(NC(=O)c2cccc(NC(=O)COc3ccccc3)c2)c1 | 0 | 8.8 | 16 | 8 | 5 | 7706 | -24
COc1ccc(OC)c(C=NNC(=O)CCN2CCN(C(c3ccccc3)c3ccccc3)CC2)c1 | . | 1.0 | 11 | 3 | -2 | . | .
CN(CCc1ccccc1)C(=O)c1cccc(NC(=O)Cc2cccc(NC(=O)C3CCCN(C(=O)C4CCCC4)C3)c2)c1 (centres undefined) | . | 2.1 | -5 | 1 | 2 | 4121 | 3
COC(=O)C1=COC(O)C2C(CO)=CCC12 (centres undefined) | . | 3.4 | 15 | 10 | -2 | . | .
COc1ccc2c(c1)C(C)=CC(C)(C)N2S(=O)(=O)c1ccc(NC(C)=O)cc1 | 47 | . | . | . | . | 3739 | 73*
CCN(CC)S(=O)(=O)c1ccc(C(=O)N(c2ccccc2)C2C=CS(=O)(=O)C2)cc1 (centres undefined) | 3 | 2.4 | -3 | -8 | -3 | 4793 | -26
COc1ccc(Cl)cc1NC(=O)CN(C)CC(=O)N1CC(=O)Nc2ccccc21 | . | 3.0 | -7 | -8 | 2 | 3900 | 0
COCCNC(=O)COc1coc(CN2CCN(Cc3ccccc3)CC2)cc1=O | -5 | -1.4 | 0 | -5 | -3 | 5389 | -29
Cc1c(O)cc2c(c1O)C(=O)CC(c1ccccc1)O2 (centres undefined) | -6 | 4.3 | . | . | -13 | 5330 | -22
FC(F)(F)c1ccc(C=Nn2c(C3CCCCC3)n[nH]c2=S)cc1 | . | -2.3 | -3 | 12 | 4 | . | .
Cc1ccc2c(c1)/C(=C/c1ccccc1F)C(=O)N2 | -3 | 5.6 | 9 | 0 | -10 | 3154 | -17
C[C@]12CC[C@@H]3c4ccc(O)cc4CC[C@H]3[C@@H]1C[C@@H](O)[C@@H]2O[C@@H]1O[C@H](C(=O)O)[C@@H](O)[C@H](O)[C@H]1O | -21 | . | . | . | . | 6249 | -8
CCOC(=O)c1ccc(NS(=O)(=O)c2cn(C)cn2)cc1 | 0 | 0.7 | -6 | -3 | -2 | 5733 | -20
CCN1C(=O)[C@@H]2[C@@H](c3ccc(-c4ccc5c(c4)OCO5)cc3)N3CCCC[C@@]3(C(=O)OC)[C@@H]2C1=O | 2 | . | . | . | . | 4468 | -18
COc1ccc(C(=O)NNS(=O)(=O)c2ccccc2)cc1 | -7 | 4.1 | 7 | 1 | 0 | 9433 | -15
CCn1c(CNc2ccc(F)cc2)nnc1SCC(=O)Nc1ccc(OC)cc1 | 1 | 6.4 | -1 | 8 | 2 | 4415 | -3
Cc1ccc(S(=O)(=O)Oc2ccc(/C=C(/NC(=O)c3ccccc3)C(=O)NCCC(=O)O)cc2)cc1 | -3 | 6.3 | 5 | -3 | 2 | 2269 | -20
O=C(OCc1nnc(-c2ccccc2)o1)c1ccco1 | 5 | 1.7 | 7 | 4 | 1 | 4653 | -17
Cn1c(C(C#N)C(=O)c2sc3ccccc3c2Cl)nc2ccccc21 (centres undefined) | 0 | -0.8 | -27 | -16 | -15 | 10490 | -20
COc1cc(/C=N/NC(=S)Nc2cccc(C(=O)O)c2)cc(OC)c1OC | 10 | . | . | . | . | 1993 | -12

Gathered by group: those above with a furan ring, fused or not (three)
SMILES | BJeLR viability | RN4220 kill | Mtb hypoxia inh | Mtb hypoxia inh growth | ugtP null kill | Autofluor counter | PrP 5UTR inh
Cc1ccc(Cc2cnc(N)s2)o1 | -1 | 1.0 | 5 | 3 | -1 | 12289 | -15
O=C(CCOc1ccccc1)OCC(=O)c1cc2ccccc2o1 | 2 | 7.8 | . | . | 0 | 3671 | -19
O=C(OCc1nnc(-c2ccccc2)o1)c1ccco1 | 5 | 1.7 | 7 | 4 | 1 | 4653 | -17

Bioassay records as filed in PubChem BioAssay.
